Myc binder: binders of human c-Myc, primary screen, biochemical, small molecule microarray, anti-His fluorescence; calls only; Myc proto-oncogene protein (Homo sapiens), P01106; His-c-Myc binding; 17,000 compounds, 1.5% hits;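 active = spot fluorescence over background with P-value below 7% in all four replicate spots, showing protein binding; compounds were printed on slides so no solution concentration is given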;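 also: score is binary with 100 for all four spots passing and 0 otherwise; about 2 pmol printed per array spot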
mut p53 SMM: binders of human mutant p53, primary screen, biochemical, small molecule microarray, anti-GST fluorescence; small molecule microarray binding; 17,000 compounds, 0.4% hits; AID 624136, 2012; calls only;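 active = compounds whose four printed spots each glow above background more than chance allows, each with a p-value under 7%; compounds were printed on slides so no solution concentration is given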;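 also: about 2 pmol printed per array spot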
STAT3 binder: STAT3 binders, primary screen, biochemical, small molecule microarray, single point, set 2; AID 624138, 2012; 17,000 compounds, 0.2% hits; calls only; His-STAT3 binding, anti-His fluorescence; Signal transducer and activator of transcription 3 (Homo sapiens), P40763;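 active = compounds whose four printed spots each show fluorescence over background unusually high for their array block, chance value under 7%; compounds were printed on slides so no solution concentration is given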;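 also: about 2 pmol printed per array spot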
Target sequence (P40763 whole entry, looked up): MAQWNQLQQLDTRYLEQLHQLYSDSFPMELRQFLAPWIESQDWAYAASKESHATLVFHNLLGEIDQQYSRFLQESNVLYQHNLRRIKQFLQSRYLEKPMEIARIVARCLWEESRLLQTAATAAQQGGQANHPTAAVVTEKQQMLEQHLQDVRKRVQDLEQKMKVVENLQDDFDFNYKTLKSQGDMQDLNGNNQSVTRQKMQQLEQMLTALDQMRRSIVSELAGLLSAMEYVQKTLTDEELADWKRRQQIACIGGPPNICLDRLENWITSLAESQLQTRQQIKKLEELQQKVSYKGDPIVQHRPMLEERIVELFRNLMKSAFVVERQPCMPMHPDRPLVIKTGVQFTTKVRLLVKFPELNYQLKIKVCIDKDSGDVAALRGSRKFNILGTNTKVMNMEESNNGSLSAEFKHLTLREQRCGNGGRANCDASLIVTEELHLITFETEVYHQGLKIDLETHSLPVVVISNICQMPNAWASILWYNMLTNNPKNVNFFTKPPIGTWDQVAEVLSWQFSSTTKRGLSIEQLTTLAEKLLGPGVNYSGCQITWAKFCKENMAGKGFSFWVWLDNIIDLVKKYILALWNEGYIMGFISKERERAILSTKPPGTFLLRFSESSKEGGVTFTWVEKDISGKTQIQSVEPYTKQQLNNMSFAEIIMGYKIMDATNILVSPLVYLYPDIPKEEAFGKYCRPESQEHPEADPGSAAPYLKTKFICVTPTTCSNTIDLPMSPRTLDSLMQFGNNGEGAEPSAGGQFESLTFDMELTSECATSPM
ID4 SMM: binders of human ID4 protein, primary screen, biochemical, small molecule microarray, single point. DNA-binding protein inhibitor ID-4 (Homo sapiens), P47928. Flag-ID4 binding, fluorescence F/B. calls only. 31,000 compounds, 1.2% hits;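 active = spot signal over background at p below 0.07 in all four prints; compounds were printed on slides so no solution concentration is given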;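 also: a binder raises fluorescence above local background on the spot; about 2 pmol printed per array spot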
Target sequence (P47928 whole entry, looked up): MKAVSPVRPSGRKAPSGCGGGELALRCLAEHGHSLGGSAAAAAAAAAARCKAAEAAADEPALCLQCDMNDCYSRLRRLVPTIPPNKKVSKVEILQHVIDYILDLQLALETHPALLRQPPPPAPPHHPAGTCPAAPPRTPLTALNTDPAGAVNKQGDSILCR
Calls only; i = inactive; x = not tested or not shown; + = active, no number.

SMILES	Myc binder	mut p53 SMM	STAT3 binder	ID4 SMM
C[C@@H]1CN([C@@H](C)CO)C(=O)c2cc(NC(=O)CCC(F)(F)F)ccc2O[C@@H](C)CCCCO[C@H]1CN(C)C(=O)Nc1ccccc1	i	i	i	i
COc1ccc(-c2c(O)c3c(OC)c4c(cc3oc2=O)OC(C)(C)C=C4)cc1	i	i	i	i
CCO[C@@H]1OC(C(=O)N2CCN(Cc3ccc4c(c3)OCO4)CC2)=C[C@H](c2csc3ccccc23)[C@H]1CCCO	i	i	i	i
Cc1noc(C)c1S(=O)(=O)N(C)C[C@H]1Oc2c(NC(=O)c3nc4ccccc4s3)cccc2C(=O)N([C@@H](C)CO)C[C@H]1C	i	i	i	i
CNC[C@@H]1Oc2ccc(NC(=O)CCN3CCOCC3)cc2CC(=O)N([C@@H](C)CO)C[C@@H]1C	i	i	i	i
CS(=O)(=O)N1CCN(C(=S)NCc2ccco2)CC1	i	i	i	i
CNC[C@H]1Oc2ccc(NC(=O)CCCN(C)C)cc2C(=O)N([C@@H](C)CO)C[C@@H]1C	i	i	i	i
Cc1ccnc(SCC(=O)Nc2ccc(Br)cc2F)n1	i	i	i	i
COC(=O)c1cc(C(=O)NCc2ccccn2)cc([N+](=O)[O-])c1	i	i	i	i
COc1cc(C2c3cc(O)c(OC)cc3CC(CO)C2CO[C@@H]2O[C@H](CO)[C@@H](O)[C@H](O)[C@H]2O)ccc1O (stereo partly specified)	i	i	i	i
Cc1ccc(NC(=O)c2ccco2)c(NC(=O)CN2C(=O)c3ccccc3C2=O)c1	i	i	i	i
C/C=C(\C)C(=O)OC(/C=C/C(O)C(C)O)C1C=CC(=O)O1 (stereo unspecified)	i	i	i	i
Cn1c(=O)[nH]c(=O)c2c1ncn2CCNCc1ccco1	i	i	i	+
CS(=O)(=O)Nc1c(O)ccc2c1CCCC2C1=NCCN1 (stereo unspecified)	i	i	i	i
COc1ccc(NC(=O)CSc2nnc(-c3cccs3)n2-c2ccc(F)cc2)cc1	i	i	i	i
Cc1noc(C)c1S(=O)(=O)Nc1ccc2c(c1)C(=O)N([C@@H](C)CO)C[C@H](C)[C@@H](CN(C)Cc1ccc(Cl)c(Cl)c1)OCCCC[C@H](C)O2	i	i	i	x
CNC[C@H]1Oc2ccc(NS(=O)(=O)c3cccs3)cc2CC(=O)N([C@H](C)CO)C[C@@H]1C	i	i	i	+
C[C@@H]1CCCCO[C@@H](CN(C)C(=O)c2ccncc2)[C@@H](C)CN([C@H](C)CO)C(=O)c2cc(NC(=O)CCC(F)(F)F)ccc2O1	i	i	i	i
COC(=O)c1ccc(OCC(=O)Nc2ccsc2C(=O)OC)cc1	i	i	i	i
Cc1nn(-c2ccccc2)c(C)c1NC(=O)COc1ccc2ccccc2c1	i	i	i	i
C[C@@H]1CCCCO[C@@H](CN(C)C)[C@@H](C)CN([C@H](C)CO)C(=O)c2cc(NC(=O)c3ccncc3)ccc2O1	i	i	i	i
COC(=O)Cc1c(C)c2c(OCC(N)=O)cc(C)cc2oc1=O	i	i	i	i
COc1ccccc1C1=NOC(Cn2c(NCc3ccccc3)nc3c2c(=O)n(C)c(=O)n3C)C1 (stereo unspecified)	i	i	i	+
CCN(CC)CCCCC1CCN(CC(=O)N2c3ccccc3C(=O)Nc3cccnc32)CC1	i	i	i	+
CC1=C(/C=C/C(C)=C\C=C\C(C)=C\C(=O)O)C(C)(C)CCC1	i	i	i	x

Two entries from above in a different format.
CNC[C@H]1Oc2ccc(NS(=O)(=O)c3cccs3)cc2CC(=O)N([C@H](C)CO)C[C@@H]1C
- Myc binder: i
- mut p53 SMM: i
- STAT3 binder: i
- ID4 SMM: +

C[C@@H]1CCCCO[C@@H](CN(C)C(=O)c2ccncc2)[C@@H](C)CN([C@H](C)CO)C(=O)c2cc(NC(=O)CCC(F)(F)F)ccc2O1
- Myc binder: i
- mut p53 SMM: i
- STAT3 binder: i
- ID4 SMM: i

Continuation:
SMILES	Myc binder	mut p53 SMM	STAT3 binder	ID4 SMM
CN1C(=O)N[C@@H]2c3ccccc3O[C@@]1(C)[C@@H]2CO[Si](C)(C)C(C)(C)C	i	i	i	i
COc1ccc(S(=O)(=O)N(C)C[C@@H]2Oc3ccc(NC(=O)Cc4ccccc4)cc3C(=O)N([C@@H](C)CO)C[C@@H]2C)cc1	i	i	i	i
CCn1c(SCC(=O)Nc2ccccc2OC)nnc1-c1ccncc1	i	i	i	i
Cc1ccc(S(=O)(=O)N(C)C[C@@H]2Oc3c(NS(=O)(=O)c4cccs4)cccc3C(=O)N([C@H](C)CO)C[C@@H]2C)cc1	i	i	i	x
C[C@@H]1CN([C@@H](C)CO)C(=O)c2cccc(NC(=O)NC3CCCCC3)c2O[C@H]1CN(C)Cc1ccncc1	i	i	i	i
C[C@@H]1CCCCO[C@@H](CN(C)C(=O)CCC(F)(F)F)[C@@H](C)CN([C@H](C)CO)C(=O)c2cc(NC(=O)CCC(F)(F)F)ccc2O1	i	i	i	i
Cc1noc(C)c1NC(=O)N(C)C[C@H]1Oc2ccc(NC(=O)CCCN(C)C)cc2C(=O)N([C@@H](C)CO)C[C@@H]1C	i	i	i	i
CC(C)NC(=O)Nc1ccc2c(c1)C(=O)N([C@H](C)CO)C[C@H](C)[C@@H](CN(C)C)OCCCC[C@H](C)O2	i	i	i	i
COC(=O)c1ccc(COc2ccc3c(C)cc(=O)oc3c2)o1	i	i	i	i
[N-]=[N+]=NCc1ccccc1C[C@]1(C(=O)N2CCOCC2)COC(c2ccc(OCCCO)cc2)=N1	i	i	i	i
COC(=O)c1ccc(C)c(NC(=O)CN(c2ccc(F)cc2)S(C)(=O)=O)c1	i	i	i	i
Cc1ccc(S(=O)(=O)Nc2ccc3c(c2)C(=O)N([C@@H](C)CO)C[C@@H](C)[C@@H](CN(C)S(=O)(=O)c2ccc(F)cc2)O3)cc1	i	i	i	x
C[C@H](CO)N1C[C@H](C)[C@@H](CN(C)C)OCCCC[C@H](C)Oc2ccc(N(C)C)cc2C1=O	i	i	i	i
C[C@@H]1CCCCO[C@H](CN(C)S(=O)(=O)c2cccs2)[C@H](C)CN([C@H](C)CO)C(=O)c2cc(NS(C)(=O)=O)ccc2O1	i	i	i	i
COc1ccc(S(=O)(=O)N(C)C[C@H]2Oc3ccc(NC(=O)Cc4ccccc4)cc3CC(=O)N([C@H](C)CO)C[C@H]2C)cc1	i	i	i	i
C[C@H](CO)N1C[C@H](C)[C@@H](CN(C)C(=O)Nc2ccc(F)cc2)Oc2ccc(NS(=O)(=O)c3ccc(Cl)cc3)cc2C1=O	i	i	i	i
C[C@H]1CN([C@@H](C)CO)C(=O)c2cc(NC(=O)Nc3ccccc3)ccc2O[C@@H]1CN(C)C(=O)Nc1ccccc1	i	i	i	i
Cc1ccc(S(=O)(=O)N[C@@H](Cc2ccccc2)C(=O)NCCn2cc(-c3ccccc3N)nn2)cc1	i	i	i	x
COc1ccc(NC(=O)Nc2cccc3c2O[C@@H](CN(C)C)[C@H](C)CN([C@H](C)CO)C3=O)cc1	i	i	i	i
O=C(O)C1=C[C@@H](c2ccc(C(F)(F)F)cc2)C[C@@H](OCc2ccc(CO)cc2)O1	i	i	i	i
C[C@@H]1CN([C@@H](C)CO)C(=O)CCCn2nncc2CO[C@H]1CN(C)C(=O)Nc1ccccc1C(F)(F)F	i	i	i	x
CC(C)(C)C1CCc2c(sc(NC(=O)CSc3nnc(-c4ccccc4)o3)c2C#N)C1 (stereo unspecified)	i	i	i	i
CC(=O)CCC1C2C(O)C(C(C)C)C(OC(=O)/C=C/c3ccccc3)CC12C (stereo unspecified)	i	i	i	x
C[C@H](CO)N1C[C@H](C)[C@@H](CN(C)C(=O)c2ccncc2)OCCCC[C@H](C)Oc2ccc(NC(=O)Cc3ccccc3)cc2C1=O	i	i	i	i
C[C@H](CO)N1C[C@H](C)[C@H](CN(C)C(=O)NC2CCCC2)Oc2ncc(/C=C/c3ccccc3)cc2C1=O	i	i	i	i

Only STAT3 binder and ID4 SMM, for 7 of the compounds above:
SMILES | STAT3 binder | ID4 SMM
CNC[C@H]1Oc2ccc(NC(=O)CCCN(C)C)cc2C(=O)N([C@@H](C)CO)C[C@@H]1C | i | i
COC(=O)c1cc(C(=O)NCc2ccccn2)cc([N+](=O)[O-])c1 | i | i
COc1ccccc1C1=NOC(Cn2c(NCc3ccccc3)nc3c2c(=O)n(C)c(=O)n3C)C1 (stereo unspecified) | i | +
CCO[C@@H]1OC(C(=O)N2CCN(Cc3ccc4c(c3)OCO4)CC2)=C[C@H](c2csc3ccccc23)[C@H]1CCCO | i | i
COc1ccc(S(=O)(=O)N(C)C[C@@H]2Oc3ccc(NC(=O)Cc4ccccc4)cc3C(=O)N([C@@H](C)CO)C[C@@H]2C)cc1 | i | i
C[C@@H]1CCCCO[C@H](CN(C)S(=O)(=O)c2cccs2)[C@H](C)CN([C@H](C)CO)C(=O)c2cc(NS(C)(=O)=O)ccc2O1 | i | i
C[C@@H]1CN([C@@H](C)CO)C(=O)c2cccc(NC(=O)NC3CCCCC3)c2O[C@H]1CN(C)Cc1ccncc1 | i | i

(listing goes on)
SMILES	Myc binder	mut p53 SMM	STAT3 binder	ID4 SMM
C[C@H]1CN([C@@H](C)CO)C(=O)c2cccc(NC(=O)C3CCOCC3)c2O[C@@H]1CN(C)C(=O)Nc1ccc2c(c1)OCO2	i	i	i	i
O=C(Cn1c(=O)oc2ccccc21)Nc1ccc(C(=O)O)cc1	i	i	i	i
C[C@@H]1CN([C@H](C)CO)C(=O)c2cccc(NS(=O)(=O)c3cccs3)c2O[C@H]1CN(C)C	i	i	i	i
C[C@H](CO)N1C[C@H](C)[C@@H](CN(C)Cc2ccc(C(=O)O)cc2)Oc2c(NC(=O)Nc3ccc(C(F)(F)F)cc3)cccc2C1=O	i	i	i	i
Cn1c(COc2ccccc2)nnc1SCc1nc2ccccc2c(=O)[nH]1	i	i	i	i
COc1ccc(C#Cc2cnc3c(c2)C(=O)N([C@H](C)CO)C[C@H](C)[C@H](CN(C)S(=O)(=O)c2ccccc2)O3)cc1OC	i	i	i	i
CC(C)NC(=O)N(C)C[C@@H]1OCCCC[C@@H](C)Oc2ccc(NC(=O)Nc3cccc4ccccc34)cc2C(=O)N([C@@H](C)CO)C[C@H]1C	i	i	i	i
O=C(C1=C[C@H](c2coc3ccccc3c2=O)C[C@H](OCCCCO)O1)N1CCOCC1	i	i	i	i
Cc1ccc(NC(=O)c2cccc(NC(=O)CCC(=O)O)c2)cc1C	i	i	i	i
Cc1noc(C)c1S(=O)(=O)N(C)C[C@@H]1OCCCC[C@H](C)Oc2ccc(NC(=O)NC(C)C)cc2C(=O)N([C@H](C)CO)C[C@@H]1C	i	i	i	i
C[C@@H]1CN([C@@H](C)CO)C(=O)c2cc(NS(=O)(=O)c3cn(C)cn3)ccc2O[C@@H](C)CCCCO[C@@H]1CN(C)C(=O)CCCN(C)C	i	i	i	i
CC(C)NC(=O)Nc1ccc2c(c1)C(=O)N([C@@H](C)CO)C[C@H](C)[C@@H](CN(C)Cc1ccccc1)OCCCC[C@@H](C)O2	+	i	i	i
CC(C)NC(=O)Nc1ccc2c(c1)CC(=O)N([C@@H](C)CO)C[C@H](C)[C@@H](CN(C)C(=O)Nc1cccc3ccccc13)O2	i	i	i	x
COc1ccc2c(c1O)CN(C)CCc1cc3c(cc1C(=O)C2)OCO3	i	i	i	x
COc1ccc(CN(C)C[C@H]2Oc3c(NC(=O)Nc4ccc(OC)cc4)cccc3C(=O)N([C@@H](C)CO)C[C@H]2C)cc1	i	i	i	i
Cc1cc(C(=O)Nc2cccc3c2O[C@@H](CN(C)C(=O)Nc2ccccc2)[C@H](C)CN([C@@H](C)CO)C3=O)n(C)n1	i	i	i	i
CCc1cc(C(=O)OC)c(NC(=O)CC2NCCNC2=O)s1 (stereo unspecified)	i	i	i	i
COc1ccc(NC(=O)Nc2ccc3c(c2)C(=O)N([C@H](C)CO)C[C@H](C)[C@H](CN(C)S(=O)(=O)c2ccc(OC)cc2)O3)cc1	i	i	i	i
C[C@H](CO)N1C[C@H](C)[C@H](CN(C)C)Oc2ncc(-c3ccccc3)cc2C1=O	i	i	i	i
COc1ccc(CN(C)C[C@@H]2Oc3ccc(NC(=O)Nc4ccc(F)cc4)cc3C(=O)N([C@@H](C)CO)C[C@H]2C)cc1	i	i	i	i
COC(=O)/C=C(\C)CCC1(C)C(C)CCC2(C)C(C)=CC(=O)CC21 (stereo unspecified)	i	i	i	x
Cc1noc(C)c1NC(=O)Nc1ccc2c(c1)C(=O)N([C@H](C)CO)C[C@H](C)[C@H](CN(C)C)OCCCC[C@@H](C)O2	i	i	i	i
Cc1noc(C)c1S(=O)(=O)Nc1ccc2c(c1)CC(=O)N([C@@H](C)CO)C[C@@H](C)[C@@H](CN(C)Cc1ccc(C(F)(F)F)cc1)O2	i	i	i	i
COC(=O)c1sc(NC(=S)Nc2cccc(Cn3cc(Cl)cn3)c2)c(C(=O)OC)c1C	i	i	i	i
COc1ccccc1CN1C(=O)c2ccccc2[C@](Cc2ccccc2I)(C(=O)NCC(C)C)[C@@H]1c1ccc(CO)cc1	i	i	i	i
C[C@H]1O[C@@H](O[C@H]2CC[C@@]3(C)C(CC[C@]4(C)C3CC=C3C5CC(C)(C)CC[C@]5(C(=O)O)CC[C@]34C(=O)O)C2(C)C)[C@H](O)[C@@H](O)[C@@H]1O (stereo partly specified)	i	i	i	i
COc1ccc(CN(C)C[C@H]2OCCCC[C@H](C)Oc3ccc(NC(=O)Nc4c(C)noc4C)cc3C(=O)N([C@@H](C)CO)C[C@@H]2C)cc1	i	i	i	i

These rows are one share of the data (hit frequency here may not be typical).
